MT1-MMP promoter: inhibitors of MT1-MMP promoter transcription, cell-based, luciferase reporter, luminescence (AID 618); MT1-MMP promoter luciferase reporter cells, luminescence; calls from a first round at 10 µM; hits with a dose series show EC50 in µM; 0.62% of 87,000 active;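 active means over half of the reporter light lost at 10 µM or EC50 under 50 µM; inactive means the rest and hits that failed the dose series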;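 further: actives suppress MT1-MMP promoter-driven transcription so potencies describe inhibitors; HT1080 fibrosarcoma cells; overnight exposure; toxic or luciferase-blocking compounds were not removed from the actives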
WNV NS2B-NS3 inh: blocks West Nile virus NS2B-NS3 protease activity; z-score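 (tested at a level between 10 and 100 µM)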; 0.18% of 65,000 active; P06935; WNV NS2B-NS3 protease, fluorogenic substrate Ex360/Em465; active compounds read low;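 active means z-score at -3 or under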;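 further: score is relative to mean and spread of the compound wells of a plate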
Target sequence (P06935 1371-1501 limits assumed): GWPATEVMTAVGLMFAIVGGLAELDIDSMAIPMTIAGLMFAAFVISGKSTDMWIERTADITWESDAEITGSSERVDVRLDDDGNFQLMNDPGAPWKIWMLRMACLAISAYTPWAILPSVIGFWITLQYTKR
Target sequence (P06935 1502-1679 limits assumed): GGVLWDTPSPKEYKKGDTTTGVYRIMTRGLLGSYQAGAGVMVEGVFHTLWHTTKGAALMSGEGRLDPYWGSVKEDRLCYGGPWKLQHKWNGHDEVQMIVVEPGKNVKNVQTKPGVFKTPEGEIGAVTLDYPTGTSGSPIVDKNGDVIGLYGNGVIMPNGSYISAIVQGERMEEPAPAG
Hsc70 ATP site: Hsc70 inhibitors, probe displacement, primary screen, biochemical, fluorescence polarization (AID 568); Hsc70 fluorescence polarization, probe displacement; higher % means a stronger effect; strong numbers were not always called active; one-dose displacement, % at 20 µM; IC50 in µM for titrated hits; 83,000 tested, under 10 active;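 active means displacement above 50% without optical interference and an IC50 on retest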;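 further: ATPase domain with a fluorescein-tagged ATP probe; 0% = vehicle and 100% = excess ADP; read after one hour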
* marks the source's active call; other numbers are inactive results; i = inactive; / = no result given. Some of the compounds tested; the hit share may differ from the screen's.

compound | MT1-MMP promoter | WNV NS2B-NS3 inh | Hsc70 ATP site
COc1ccc(N2C(=O)CC(NCc3cccc(F)c3)C2=O)cc1 (stereo unspecified) | i | 0.46 | 1.3%
O=C(CN1C(=O)C2CC=CCC2C1=O)Nc1nc2ccccc2[nH]1 (stereo unspecified) | i | -1.1 | -3.1%
CCCN(CCC)S(=O)(=O)c1ccc(C(=O)O)cc1 | i | 0.16 | 1.0%
Fc1ccccc1CCNc1nnnn1-c1ccccc1 | i | 0.26 | -6.2%
CCn1nnnc1-c1ccc(OC)c(S(=O)(=O)NCc2ccccc2)c1 | i | 0.02 | 0.5%
Cc1ccc(CNC(=O)C2(C)Oc3ccccc3NC2=O)cc1 (stereo unspecified) | i | / | 3.4%
COc1ccc(-c2csc(Nc3ccc(S(N)(=O)=O)cc3)n2)cc1 | i | / | -2.2%
CCc1ccc2c(COC(=O)c3n[nH]c4ccccc34)cc(=O)oc2c1 | i | -2.3 | 2.5%
O=C(c1cc(-c2ccc(Cl)c(Cl)c2)on1)N1CCN(c2ccccc2)CC1 | i | 0.53 | 1.6%
Fc1cc(Br)ccc1Nc1nc2ccccc2n2nnnc12 | i | 0.25 | -3.2%
CCOC(=O)n1c(SCC(=O)N(CC)CC)nc2ccccc21 | i | -0.84 | 2.2%
CCC(CO)NC(=O)c1cccc(S(=O)(=O)N2c3ccccc3CC2C)c1 (stereo unspecified) | i | 1.5 | 2.9%
Clc1ccccc1Cn1nnc2c(NCC3CC3)ncnc21 | i | 0.85 | -5.0%
CCOc1ccc(N2C(=O)CC(N3CCN(C4CCc5ccccc5C4)CC3)C2=O)cc1 (stereo unspecified) | i | 1.3 | 7.4%
CC1CN(C(=O)CSc2nnc(-c3ccc(Cl)cc3)n2C)CC(C)O1 (stereo unspecified) | i | -0.95 | -1.9%
c1ccc(-c2nn3c(C4CCCCC4)nnc3s2)nc1 | i | 0.0062 | 0.9%
CNC(=O)Nc1ccccc1C(=O)NCc1ccccc1 | i | 1.8 | -3.1%
O=C(NCc1ccc(Cl)cc1)c1noc2c1CCCCC2 | i | 1.6 | 2.8%
COC(=O)c1ccccc1NC(=O)COC(=O)c1cccnc1 | i | 1.8 | -1.2%
N#Cc1nc(-c2cccs2)oc1NCc1ccco1 | i | 3 | 2.0%
CCOC(=O)C1CCCN(Cc2c(Cl)cccc2Cl)C1 (stereo unspecified) | i | 1 | -3.2%
COc1ccc(CNc2ccc3c(c2)ncn3-c2ccccc2OC)cc1 | i | / | -0.3%
COc1ccc(Oc2coc3cc(OC(=O)N4CCOCC4)ccc3c2=O)cc1 | i | 0.16 | 4.1%
COC(=O)c1cc(Br)ccc1OC(=O)c1cccnc1 | i | -0.14 | -3.4%
CN(CC(=O)Nc1nc2ccccc2s1)S(=O)(=O)c1ccc(Cl)cc1 | i | / | -0.5%
COc1ccccc1CC1(C)NC(=O)N(CC(=O)N2CC(C)OC(C)C2)C1=O (stereo unspecified) | i | -0.27 | 6.9%
CC(OC(=O)CNC(=O)c1ccc2c(c1)OCO2)C(=O)NCCC1=CCCCC1 (stereo unspecified) | i | 0.02 | 4.4%
Cc1ccccc1N1C(=O)[C@@H]2Cc3ccccc3CN2C1=O | i | -0.15 | -9.1%
CCCCC(=O)Nc1ncc2c(n1)CC(C)(C)CC2=O | i | 0.46 | 4.8%
Cc1nnc(SCc2ccccc2C#N)n1-c1ccccc1 | i | 1.5 | 5.4%
CC(=O)Nc1ccc(S(=O)(=O)N(C)CC(=O)NC2=NCCS2)cc1 | i | 1.5 | -1.9%
CCCCN1C(=O)/C(=C2/C=CC=CN2C)SC1=S | i | / | -10%
CCO/C(C)=N/n1c2nc3ccccc3nc2c2c(=O)n(Cc3ccccc3Cl)c(C)nc21 | i | -0.64 | -2.1%
COc1ccc(S(=O)(=O)N2CC(C)N(S(=O)(=O)c3ccc(OC)cc3)CC2C)cc1 (stereo unspecified) | i | -0.42 | 4.5%
CC(C)Cc1ccc(C(C)C(=O)N2CCOCC2)cc1 (stereo unspecified) | i | -0.54 | -4.1%
CC(C(=O)NCC1CCCO1)n1cccc1C(=O)c1ccccc1 (stereo unspecified) | i | 0.01 | -3.9%
COC(=O)Cc1[nH]nc2c1C1(CCSCC1)C(C#N)=C(N)O2 | i | 0.48 | 11%
Cc1ccc(-c2nn(CC(=O)N(C)C)c(=O)c3ccccc23)cc1S(=O)(=O)N(C)C | i | / | 0.6%
CCS(=O)(=O)N1CCCC(C(=O)NC2CCCCC2)C1 (stereo unspecified) | i | -1.2 | -2.0%
Cc1nc2ccc(NC(=O)c3sccc3C)cc2s1 | i | / | -0.8%
O=S(=O)(NCc1ccccc1)c1ccc(S(=O)(=O)N(Cc2ccccn2)Cc2ccco2)cc1 | i | 1.3 | 4.8%
COC(=O)NCC1(C)CC(NC(=O)OC)CC(C)(C)C1 (stereo unspecified) | i | 0.65 | 0.1%
O=C(c1ccncc1)N1CCN(C(=O)c2ccncc2)CC1 | i | -0.26 | -0.1%
C=CCOc1c(Br)cc(C2NC(=O)NC(C)=C2C(C)=O)cc1OCC (stereo unspecified) | i | / | -4.1%
Cc1c(/C(O)=C2\C(=O)C(=O)N(CCN(C)C)C2c2ccco2)cnn1-c1ccccc1 (stereo unspecified) | i | / | 2.5%
COc1cc2c(cc1OC)C(c1cccs1)N(C(=O)C(C)C)CC2 (stereo unspecified) | i | / | -1.4%
Cc1cc(-n2nc(C)cc2C)n2ncc(-c3ccccc3)c2n1 | i | 0.7 | 2.2%
Cc1cccc(CSc2nc3c(cc2C#N)CCC3)c1 | i | / | -3.4%
COc1ccc(-c2csc(C)n2)cc1OC | i | / | 1.6%
Cc1ccc(S(=O)(=O)NCc2cccnc2)s1 | i | / | 2.4%

(next part)
compound | MT1-MMP promoter | WNV NS2B-NS3 inh | Hsc70 ATP site
COCCNC(=O)c1ccc(CS(=O)(=O)c2ccc(C)cc2)o1 | i | -0.58 | -3.3%
O=C1CC2(CCCCC2)Oc2ccc(O)cc21 | i | -0.71 | 0.5%
CC(C)Sc1nc2c(cnn2-c2ccccc2)c(=O)[nH]1 | i | 0.88 | 5.0%
O=C(Nc1ccc2c(c1)oc1ccccc12)c1ccncc1 | i | -0.5 | -1.9%
Cc1ccc2c(c1)cc(C)c1nnc(SCC(=O)NCc3ccco3)n12 | i | -0.14 | -11%
Cc1cc(C)n(-c2nncn2/N=C/c2ccccc2F)n1 | i | -0.24 | -3.8%
COc1cccc2sc(Nc3nnc(-c4cccs4)o3)nc12 | i | -0.95 | -2.3%
CC(C)=CCC/C(C)=C/CN(CC(C)O)CC(C)O (stereo unspecified) | i | 1.4 | -1.1%
CN(C)S(=O)(=O)N1CCN(C(=O)c2ccccc2Cl)CC1 | i | 1.3 | -2.9%
C=CCc1cccc(/C=N/c2nc3ccccc3n2CC)c1O | i | 0.6 | -5.7%
CN(C)Cc1nc2c([nH]1)c(=O)n(C)c(=O)n2C | i | 1.6 | -2.4%
COc1cc(C(c2nnnn2C(C)(C)C)N2CCN(c3nc4ccccc4s3)CC2)ccc1O (stereo unspecified) | i | -1.1 | -3.8%
CCOC(=O)c1cc2ccccc2nc1C | i | -0.16 | -5.8%
CCC(C)NC(=O)C1CCCCN1S(=O)(=O)c1ccc(F)cc1 (stereo unspecified) | i | / | 0.6%
CCCC(c1nnnn1Cc1ccccc1)N1CCC(C(N)=O)CC1 (stereo unspecified) | i | -0.16 | 5.2%
Cc1ccc(-c2cc(C(=O)NCc3ccco3)no2)cc1 | i | -0.91 | 7.0%
CCC(=O)Nc1cc(C)c(NC(=O)C23CC4CC(CC(C4)C2)C3)cn1 | i | -0.68 | -2.1%
CCNc1nc(NCC)n2c(SCc3ccc(F)cc3)nnc2n1 | i | 2.2 | -6.6%
O=C(NC1CCCC1)C(c1ccncc1)N(CC1CCCO1)C(=O)Cn1nnc(-c2cccs2)n1 (stereo unspecified) | i | / | -0.4%
O=C(Nc1cccnc1)c1ccc(COc2ccccc2Cl)o1 | i | / | 4.1%
COc1cccc(-c2cc(C(=O)Nc3cnn(Cc4ccc(F)cc4)c3)no2)c1 | i | -0.3 | -8.7%
CCC1CCCCN1Cc1nc2c(c(=O)n(C)c(=O)n2C)n1Cc1ccccc1 (stereo unspecified) | i | 0.13 | -3.4%
Nc1nnc(SCc2ccc(Cl)cc2)s1 | i | / | -1.2%
CCOC(=O)c1c(C)c(C(=O)NCCCN2CCCC2=O)c(C)n1CC | i | -1.2 | -4.4%
O=C(Oc1cccc(-n2cnnn2)c1)c1sc2ccccc2c1Cl | i | -0.54 | 2.1%
CSCC[C@@H](C(=O)Nc1ccc2c(c1)OCCO2)N1Cc2ccccc2C1=O | i | -1.7 | 11%
COc1cc(C2N=C(c3ccccc3)NO2)cc(Br)c1O (stereo unspecified) | i | 0.87 | -1.1%
NC(=O)CSc1c[nH]c2ccccc12 | i | 0.42 | 0.8%
CC(=O)N1CCCc2cc(S(=O)(=O)N(C)CCC#N)ccc21 | i | 0.37 | 1.6%
CCOc1ccc(/C(O)=C2/C(=O)C(=O)N(Cc3cccnc3)C2c2ccc(N(C)C)cc2)c(C)c1 (stereo unspecified) | i | 1.8 | -2.3%
CN(C)/C=C/C=C1C(=O)CCCC1=O | i | / | -11%
Cc1ccc2oc(=O)c3cnn(CC(=O)N4CCN(c5ccccn5)CC4)c3c2c1 | i | 0.24 | 0.9%
COc1ccc2nc(/N=C\N(C)C)sc2c1 | i | 0.2 | 0.0%
COCCn1nnnc1C(c1cc(OC)ccc1OC)N1CCc2ccccc2C1 (stereo unspecified) | i | 1.5 | -5.1%
O=C1Nc2ccc(Br)cc2C1=Nc1ccc(-c2nnc3n2CCCCC3)cc1 | i | / | -1.1%
CCn1c(SCC(=O)c2ccc(NS(=O)(=O)c3ccccc3)cc2)nnc1-c1cccs1 | i | -0.42 | -1.0%
Cc1ccc(C2NC(=O)c3ccccc3N2)s1 (stereo unspecified) | i | 1.4 | -3.3%
O=C(c1ccccc1)c1nc2ccccc2[nH]c1=O | i | -0.67 | 0.9%
Cn1c(=O)n(CC(=O)Nc2ccc(F)cc2)c2ccccc21 | i | 0.69 | -1.2%
c1cncc(-c2nc(-c3cccs3)cs2)c1 | i | -0.49 | -4.8%
CCN(CCCNC(=O)CC(C(=O)N1CCc2ccccc21)n1ccnc1)c1cccc(C)c1 (stereo unspecified) | i | 0.52 | -4.1%
O=C(CCn1c(=O)oc2ccccc21)NC1=NCCS1 | i | 1.5 | 3.8%
COc1ccc(NC(C)c2cc(Cl)ccc2O)cc1 (stereo unspecified) | i | 0.13 | 0.3%
CCOC(=O)COn1c(SCC(=O)OCC)nc2ccccc2c1=O | i | / | -6.2%
COc1ccc(CCNC(=O)Cn2nnc(-c3ccc(N4CCOCC4)cc3)n2)cc1OC | i | -0.4 | 1.9%
Cc1cc(N2CCCCC2)n2ncc(-c3ccccc3)c2n1 | i | -0.24 | 0.3%
CC(C)OC(=O)n1c(=S)oc2ccccc21 | i | / | 5.6%
CSCC[C@@H](C(=O)O)N1Cc2ccccc2C1=O | i | -2.5 | 0.4%
CC1=C(C(=O)Nc2ccccc2)C(c2ccco2)C(C#N)=C(SCc2ccccc2)N1 (stereo unspecified) | i | -0.86 | 2.2%
O=C(c1ccc(F)cc1)N1CCC(O)(c2cccnc2)CC1 | i | -1.2 | -1.6%

Taken from above:
Cc1ccc(CNC(=O)C2(C)Oc3ccccc3NC2=O)cc1 (stereo unspecified) – Hsc70 ATP site = 3.4%
C=CCc1cccc(/C=N/c2nc3ccccc3n2CC)c1O – WNV NS2B-NS3 inh = 0.6

5 records picked at random from the list so far:
compound | MT1-MMP promoter | WNV NS2B-NS3 inh | Hsc70 ATP site
CSCC[C@@H](C(=O)O)N1Cc2ccccc2C1=O | i | -2.5 | 0.4%
COc1ccc(NC(C)c2cc(Cl)ccc2O)cc1 (stereo unspecified) | i | 0.13 | 0.3%
O=C(c1ccc(F)cc1)N1CCC(O)(c2cccnc2)CC1 | i | -1.2 | -1.6%
Cc1cc(N2CCCCC2)n2ncc(-c3ccccc3)c2n1 | i | -0.24 | 0.3%
CCOC(=O)COn1c(SCC(=O)OCC)nc2ccccc2c1=O | i | / | -6.2%

(further entries)
compound | MT1-MMP promoter | WNV NS2B-NS3 inh | Hsc70 ATP site
O=C(CCN1C(=O)C2C3C=CC(C3)C2C1=O)Nc1ccccn1 (stereo unspecified) | i | -0.81 | 8.8%
Cc1noc(C)c1COC(=O)Cn1c(C)nc2ccccc21 | i | -1.3 | 2.2%
O=C(Nn1c(C2CC2)nc2ccccc2c1=O)c1ccco1 | i | -0.35 | -1.1%
CCOc1cc(C(=O)Nc2ccccc2N2CCN(S(C)(=O)=O)CC2)cc(OCC)c1OCC | i | -1.2 | -2.3%
O=C(CSc1n[nH]c(-c2ccccc2)n1)NC(=O)NCc1ccco1 | i | 0.51 | -5.7%
CCS(=O)(=O)N1CCCC(c2nc(-c3cccc(OC)c3)no2)C1 (stereo unspecified) | i | 0.67 | 3.6%
COc1ccc(N2CCN(c3cc(C)c4ccc(O)cc4n3)CC2)cc1 | i | 0.94 | -2.0%
CCCCN(CCCNC(=O)C1CCN(S(=O)(=O)N2CCOCC2)CC1)c1ccccc1 | i | 1.9 | 2.7%
